Screening data as filed in PubChem.
Rango complex inh = Rango-importin beta binding inhibition; Q14974; Rango CFP/YFP FRET sensor + importin beta, 45 min; Potency, µM (titrated, usually from 92.2 µM), for the others: at the highest dose inhibition of complex formation; 340,000 compounds, 0.031% hits; AID 540263; active = rising FRET ratio curve, often small or poorly fitted; inconclusive = mostly compound fluorescence or quenching in the first reads; inactive = flat curves in all reads;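 note: potency is the fitted concentration of half-maximal effect; 0% = DMSO wells and 100% = buffer wells lacking importin beta; nearly all actives have a fitted effect of over 15% in size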
Target sequence (Q14974 whole entry, looked up): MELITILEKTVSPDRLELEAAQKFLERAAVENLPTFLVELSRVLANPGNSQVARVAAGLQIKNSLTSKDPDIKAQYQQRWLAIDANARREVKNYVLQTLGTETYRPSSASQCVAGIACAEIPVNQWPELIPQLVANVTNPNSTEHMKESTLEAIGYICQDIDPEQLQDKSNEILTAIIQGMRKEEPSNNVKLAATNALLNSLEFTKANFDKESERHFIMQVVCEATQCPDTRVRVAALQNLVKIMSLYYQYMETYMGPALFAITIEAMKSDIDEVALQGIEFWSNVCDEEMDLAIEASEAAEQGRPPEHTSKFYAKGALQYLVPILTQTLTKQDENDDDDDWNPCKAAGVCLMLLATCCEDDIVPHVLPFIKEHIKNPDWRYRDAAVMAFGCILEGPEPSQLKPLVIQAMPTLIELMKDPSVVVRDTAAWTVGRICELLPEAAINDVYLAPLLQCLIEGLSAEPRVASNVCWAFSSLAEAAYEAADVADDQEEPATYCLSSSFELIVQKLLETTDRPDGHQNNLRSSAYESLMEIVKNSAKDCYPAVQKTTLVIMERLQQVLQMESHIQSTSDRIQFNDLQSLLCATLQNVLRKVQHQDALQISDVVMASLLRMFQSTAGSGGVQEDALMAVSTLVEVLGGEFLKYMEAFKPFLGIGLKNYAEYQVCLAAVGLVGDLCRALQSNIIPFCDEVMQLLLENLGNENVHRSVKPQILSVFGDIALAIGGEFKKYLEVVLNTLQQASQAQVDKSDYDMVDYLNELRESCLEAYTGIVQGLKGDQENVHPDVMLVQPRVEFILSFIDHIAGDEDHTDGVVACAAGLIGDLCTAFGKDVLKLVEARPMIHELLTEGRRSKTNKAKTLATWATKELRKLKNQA
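FRET biosensor Rango (snurportin 1 IBB between N-terminal EYFP and C-terminal Cerulean), 50 nM in PBS/1 mM DTT/0.02% Tween-20/0.1% BSA, preincubated 5 min RT with compound; 0.125 microM importin beta added, 45 min RT, CFP/YFP FRET ratio read.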
miR-21 FLuc = raises the signal of a miR-21 reporter. HeLa miR-21 FLuc reporter, luciferase, 48 h. 340,000 tested, under 10 active. Potency, µM (highest dose often 38.3 µM), for the others: at the highest dose reporter change, positive = more light; active = well fitted rising curve with a large enough effect; inconclusive = small, poorly fitted or top-dose-only effect; inactive = no such curve, though single readings can be large or run the other way;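 note: % of control where 0% means no effect; miR-21 action dims this reporter so a rising signal means less miR-21 action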
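Using DMEM plus 10% FBS, HeLa miR-21-FLuc cells are incubated with test compounds (final up to about 40uM) for 48 hours; firefly luciferase signal is then imaged following reagent-mediated lysis.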
Rango dissoc inh = inhibitors of RanGTP-induced Rango-importin beta complex dissociation; O95149+P62826; Biochemical FRET Rango-importin beta, RanGTP-induced dissociation; Potency, µM (top dose mostly 46.1 µM), for the others: at the top dose activity change, negative = inhibition; 340,000 compounds, 0.071% hits; active means falling FRET ratio curve, often poorly fitted, with flat reads before Ran was added; inconclusive means other falling curves, or compound fluorescence or quenching; inactive means flat or rising ratio curve;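 note: potency is the fitted concentration of half-maximal effect; % of control where 0% means no effect; nearly all actives have a fitted effect of over 45% in size; -100% = wells without RanGTP and RCC1; the record marks most hits as doubtful in a second field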
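Rango FRET biosensor (snurportin-1 IBB flanked by N-terminal EYFP and C-terminal CFP10) at 0.1 uM, with 0.25 uM importin beta in PBS, 1mM DTT, 0.02% Tween-20, 0.1% BSA. 0.6 uM Ran, 2mM GTP and 0.2 uM RCC1 were then added for 45 min at room temperature. Inhibition read as loss of FRET rise.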
GLA inh pH 4.5 = alpha-galactosidase A (human) inhibition, pH 4.5; activity change, negative = inhibition, % at 105 µM; AID 1467; purified enzyme, 4-MU-alpha-Gal fluorescence, pH 4.5; 230,000 tested, under 10 active; P06280; inconclusive = small, poorly fitted or top-dose-only inhibition, or a rising curve; inactive = flat fitted curve, though single readings scatter; no compound was filed as active;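 note: 0% = full activity with enzyme and -100% = basal without enzyme; dose as in the result columns while the protocol names 77 µM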
* marks the source's active call; other numbers are inactive results; ? = inconclusive; · = not tested or not shown; & = joins results of further samples. Some of the compounds tested; the hit share may differ from the screen's.

GLA inh pH 4.5	Rango complex inh	miR-21 FLuc	Rango dissoc inh	compound
-0.2	-0.2%	-54.5%	-10.0%	CN(Cc1cccc(-n2cccn2)c1)C(=O)CCc1nnc(C2CCCCC2)o1
2.7	5.5%	-47.7%	6.1%	C=CCNC(=O)COc1ccc(Br)cc1Cl
·	-1.1%	12.1%	-7.8%	O=c1[nH]c(CCl)nc2cc(-c3ccc(F)cc3)sc12
-6.6	-0.4%	-4.8%	11.5%	O=C(NCc1cccnc1)c1ccc(CS(=O)(=O)c2ccc(Br)cc2)o1
-18.2	-1.4%	-8.8%	1.2%	CCOC(=O)N1CCC(N(CCOC)C(=O)Nc2ccc(C)c(C)c2)CC1
-9.4	-0.3%	-2.4%	-7.0%	COc1ccc(S(=O)(=O)N(CC(=O)N2CCOCC2)c2cc(Cl)ccc2OC)cc1OC
1.3	4.4%	-2.0%	18.4%	COc1ccccc1N1CCN(C(=O)CCCn2c(=O)[nH]c3ccsc3c2=O)CC1
-14.4	?	-0.7%	-12.4%	Cc1c(S(=O)(=O)c2ccccn2)c(N)n(Cc2ccccc2)c1C
·	3.1%	·	10.0%	O=C(c1cc2ccccc2o1)N(Cc1nnc(-c2ccccc2Cl)o1)C1CC1
-9.3	1.0%	-5.9%	2.2%	CSc1nc2ccc(NC(=O)C3=NN(c4ccccc4)C(=O)CC3)cc2s1
-2.0	-0.1%	-10.5%	-15.9%	O=C1CS/C(=N\N=C\c2ccccc2Cl)N1CC1CC1
·	-1.8%	-1.6%	15.4%	CC(=O)N1c2ccc(S(=O)(=O)NCC3CCC(C(=O)N4CCCCC4)CC3)cc2CC1C (stereo unspecified)
·	-0.6%	-2.9%	18.1%	O=C(Cn1nc(-c2cccs2)ccc1=O)Nc1ccc(Br)cc1
·	-0.3%	-5.0%	-12.6%	COc1ccccc1C(=O)NC(=S)Nc1ccc(N2CCN(C(=O)c3ccco3)CC2)cc1
·	0.8%	0.6%	-16.4%	CC(NCc1ccc(OCC(N)=O)cc1)C12CC3CC(CC(C3)C1)C2 (stereo unspecified)
1.6	1.0%	-5.2%	-22.1%	O=C(C/C=N/OCc1c(Cl)cccc1Cl)c1cnc(-c2ccccc2)s1
·	-0.1%	-2.5%	-6.7%	O=C(O)CN1C(=O)/C(=C\c2cc(Br)ccc2OCc2ccc(Cl)cc2Cl)SC1=S
3.6	-0.2%	3.6%	-0.6%	COc1ccc(CCNC(=O)c2ccc(CNS(=O)(=O)c3ccc(C(C)(C)C)cc3)cc2)cc1OC
-26.2	-2.7%	0.7%	-0.6%	O=C(NC1CCCCC1)c1cccnc1C(=O)O
-12.8	0.6%	-18.0%	-13.9%	C/C(Cc1ccccc1)=N\NC(=O)CNC(=O)c1ccc(C(C)(C)C)cc1
·	-1.7%	-8.3%	21.1%	N[C@@H](Cc1ccccc1)C(=O)N1CCC(C(=O)NCC(=O)Nc2ccc(F)cc2)CC1
-3.2	-1.1%	-43.9%	0.8%	Nc1nc(-c2ccc3c(c2)CCCC3)cs1
·	-1.0%	-0.9%	-1.9%	Cc1ccccc1C(=O)N1CCC(C(=O)NC2CCCCC2)CC1
-0.4	1.1%	-24.3%	-0.9%	CC(=O)c1ccc(OCc2cccc(C(F)(F)F)c2)cc1O
·	-2.6%	12.6%	-6.3%	O=C(CCC(=O)N1CCOc2ccc(Cl)cc21)NCCCN1CCN(c2ccccc2F)CC1
·	?	·	0.4%	COc1ccc(C)cc1NC(=O)c1ccc(OCc2c(C)noc2C)cc1
·	-2.5%	0.1%	-10.2%	CCc1ccc(NCc2ccc(OC)c(Cn3ccnc3)c2)cc1
7.2	-0.2%	-3.1%	4.7%	N#C/C(=C/c1cc(Br)cs1)C(=O)NCC1CCCO1 (stereo unspecified)
·	-2.4%	·	15.6%	CCCCc1nc2sc3c(c2c(=O)[nH]1)CC(C)(C)OC3
·	-0.1%	-17.8%	-1.3%	Cc1ccc(NC(=O)c2ccccc2NC(=O)c2cccs2)cc1
-0.4	4.1%	14.1%	1.4%	Cc1nn(Cc2ccccc2Cl)c(C)c1NC(=O)c1nc2ncccn2n1
2.2	-0.5%	-4.7%	-11.0%	Cc1ccc(CN(C)CC(=O)Nc2cccc([N+](=O)[O-])c2)o1
·	5.6%	·	-0.5%	O=S(=O)(Nc1cccc(-c2ccc3nncn3n2)c1)c1cccc(F)c1
-1.6	0.0%	-11.1%	-2.9%	CCN(CC)C(=O)COc1ccc(/C(C)=N/NC(=O)c2ccccc2O)cc1
-18.2	-3.8%	-3.4%	-21.7%	CCc1nnc(NC(=O)C2CCN(C(=O)NC3CCCCC3)CC2)s1
1.3	-4.6%	-0.2%	13.7%	CCN(CC)S(=O)(=O)c1ccc2c(c1)N(CC(=O)NCc1ccco1)C(=O)CO2
-3.4	-2.0%	2.7%	0.4%	Cc1cc(C)cc(N2CC(C)(C)C2=O)c1
·	0.4%	-3.2%	1.3%	NS(=O)(=O)c1ccc(CCNC/C=C/c2ccccc2)cc1
·	0.1%	-2.1%	2.0%	Cc1cc(Nc2ccc(Cl)cc2)nc(-c2ccccc2O)n1
-5.4	1.4%	-29.3%	11.6%	Cc1ccc(NC(=O)c2cc3cccc([N+](=O)[O-])c3[nH]2)cc1
2.8	-6.4%	-1.8%	-0.8%	COc1ccc(Nc2nc(C(=O)NCCCN3CCOCC3)cs2)cc1
·	-0.9%	·	17.0%	O=S(=O)(Nc1ccccc1OC(F)F)c1ccc(S(=O)(=O)N2CCCC2)cc1
1.8	0.8%	-2.7%	-1.7%	O=C(CCC(=O)N1CCN(S(=O)(=O)c2ccccc2)CC1)c1cccs1
2.9	-1.7%	6.4%	-24.7%	O=C(c1ccco1)N1CCN(C(c2ccc(F)cc2)c2nnnn2CC2CCCO2)CC1 (stereo unspecified)
-6.7	0.3%	0.3%	16.3%	CSc1sc(C(=O)NN)c2c1C1(CCC2)SCCS1
9.3	-1.8%	28.6%	-11.7%	COc1cc(/C=C/C(=O)c2c(O)ccc3c(C)cc(=O)oc23)ccc1O
·	-0.8%	9.9%	3.7%	Cc1ccc(S(=O)(=O)c2ccc(Cl)cc2)cc1S(N)(=O)=O
-1.2	-3.8%	23.1%	-6.7%	COc1ccc(C[C@H]2CN3C(=NC[C@@H]3Cc3ccc(O)cc3)N2C[C@H](C)NC(=O)CCC2CCCCC2)cc1
·	0.9%	12.9%	-2.6%	Cc1ccc(N(C(=O)c2snc(C(N)=O)c2N)C(C(=O)NC2CCCC2)c2ccc(C)o2)cc1 (stereo unspecified)
-1.8	1.0%	0.2%	-4.1%	Cc1ccccc1C1NC(=O)Cc2ccccc21 (stereo unspecified)

Sorted by value in Rango dissoc inh (rising): 3 of the compounds above
structure | Rango dissoc inh
Cc1ccccc1C(=O)N1CCC(C(=O)NC2CCCCC2)CC1 | -1.9%
COc1ccc(CCNC(=O)c2ccc(CNS(=O)(=O)c3ccc(C(C)(C)C)cc3)cc2)cc1OC | -0.6%
Cc1ccc(NC(=O)c2cc3cccc([N+](=O)[O-])c3[nH]2)cc1 | 11.6%

Carrying on.
GLA inh pH 4.5	Rango complex inh	miR-21 FLuc	Rango dissoc inh	compound
·	?	·	8.6%	CCOC(=O)[C@H]1[C@H]2COc3ccccc3[C@@H]2N2C(=O)CNC(=O)[C@@]12C
0.3	4.1%	-3.4%	8.3%	CCCCc1nnc(NC(=O)CCSc2ccccc2)s1
6.5	1.5%	0.1%	7.9%	Cc1cccc(OC(C)C(=O)N(Cc2cccs2)C2CCS(=O)(=O)C2)c1C (stereo unspecified)
1.1	-0.4%	5.6%	-4.9%	CCOc1ncccc1C(=O)N1CCN(c2ccc(C(F)(F)F)cn2)CC1
·	4.2%	0.7%	2.2%	CCOc1ccc(/C=N/NC(=O)c2cccc3ccccc23)c(OCC)c1
·	3.1%	·	6.9%	O=C(NCCC(=O)N1CCN(c2ccccc2F)CC1)c1ccco1
·	3.1%	-28.9%	0.9%	CCOc1ccc(N(CC(=O)Nc2ccc(Br)cc2)S(C)(=O)=O)cc1
4.4	4.6%	-3.8%	1.6%	COCC(=O)N1CCN(c2cccc(Cl)c2)CC1
·	?	2.2%	1.2%	O=C(Nc1cccc(-n2cnnn2)c1)c1cccnc1
0.5	-2.5%	26.1%	-0.4%	COc1ccc(-c2[nH]c(-c3ccc4c(c3)OCO4)nc2-c2ccccc2)cc1
·	-1.4%	·	-2.6%	CN(C(=O)c1cccc(S(=O)(=O)N2CCCC2)c1)C1CCCCC1
-5.9	-2.5%	-5.1%	-18.8%	CC1C/C(=N/O)C(C)CN1 (stereo unspecified)
9.1	2.9%	-3.7%	-6.8%	CCOC(=O)c1c(C)c(C)n(Cc2ccc(OC)c(OC)c2)c1C
1.2	-5.5%	-3.4%	-6.2%	CC1Cc2nc(SCC(=O)Nc3ccc4c(c3)OCCO4)n(C)c(=O)c2S1 (stereo unspecified)
·	-1.6%	-4.7%	16.6%	O=C(N/N=C\C=C\c1ccc(Br)cc1)c1ccc2c(c1)OCO2
-4.7	-1.1%	3.6%	0.4%	COC(=O)CSc1nnc(-c2ccc(OC)cc2OC)o1
2.2	-5.0%	-6.0%	-17.2%	COc1ccccc1N1CCN(C(=O)CCC(=O)O)CC1
-4.2	-0.1%	1.7%	?	O=C(NC1CCCCC1)C1CC(O)CN1C(=O)OCc1ccccc1 (stereo unspecified)
·	-4.9%	·	22.8%	COc1ccc(C(=O)COC(=O)/C=C/c2ccccc2)c(OC)c1
0.2	-7.8%	-4.0%	13.8%	O=C(NC(c1ccccc1)c1ccccc1)C1CCCN(S(=O)(=O)c2cnc[nH]2)C1 (stereo unspecified)
·	-0.6%	?	-1.5%	CCN(CC)CC(O)Cn1c(C)c(-c2ccccc2)c2cc([N+](=O)[O-])ccc21 (stereo unspecified)
0.9	-0.6%	0.0%	8.3%	CCOC(=O)c1cn(CC#N)c2cc(F)c(F)cc2c1=O
·	0.3%	-17.7%	7.4%	Cc1nc(C)c(-c2csc(Nc3ccc(O)cc3C)n2)s1
-8.3	0.3%	?	-9.0%	Cc1ccn2c(-c3csc(NCc4ccccc4)n3)c(C)nc2c1
-1.9	0.1%	-4.3%	18.0%	O=C(NNc1ccccc1Br)C(=O)n1ccc2ccccc21
·	0.8%	·	-4.5%	O=C(NCC(c1ccco1)N1CCN(c2ccccc2)CC1)C(=O)NC1CCCCC1 (stereo unspecified)
5.5	-1.8%	-1.7%	-10.5%	CC1CN(c2cc(=O)n(-c3ccccc3)c(=O)[nH]2)CC(C)O1 (stereo unspecified)
-3.0	2.2%	-2.2%	0.6%	Cc1ccc(S(=O)(=O)Nc2cc(-c3ccc(Cl)cc3)nn2C)cc1
·	0.0%	-0.4%	-5.0%	COc1ccc(S(=O)(=O)n2nc(C)c(S(=O)(=O)N3CCOCC3)c2C)cc1
·	-0.9%	·	-3.6%	CC[C@H](C)[C@@H](C(=O)NCCCCCCCCCCC(=O)N1CCN(C(=O)OC(C)(C)C)CC1)n1cc(CCCCCNC(=O)OC(C)(C)C)nn1
0.7	6.5%	2.1%	23.5%	Cc1ccc2cc(C)c3nnc(SCc4ccc(C(=O)O)cc4)n3c2c1C
-6.1	1.2%	-18.6%	-0.8%	Cc1nc(CN2CCN(C(=O)c3ccc(C(C)(C)C)cc3)CC2)cs1
1.7&3.7	2.0%&-0.8%	-5.5%&-4.4%	15.2%&-10.7%	Cc1nc2nc[nH]n2c(=O)c1NC(=O)CC12CC3CC(CC(C3)C1)C2
-3.8	0.2%	-18.6%	8.4%	CC(C)/C=C1\CCc2c([nH]c3ccccc23)C1=O
1.9	-1.0%	-6.6%	6.7%	COc1ccc(C2C(C(=O)Nc3ccccc3)=C(C)N=C3SCC(=O)N32)cc1 (stereo unspecified)
·	-0.7%	·	2.3%	O=C1[C@H]2[C@@H](c3ccc(F)cc3)N3C(=O)N(c4cccc(F)c4)C(=O)[C@@]3(Cc3ccccc3)[C@H]2C(=O)N1C1CCCCC1
0.4	-0.6%	-4.7%	0.6%	COc1ccccc1NC(=S)NC(=O)/C=C/c1ccco1
